High-throughput results from PubChem BioAssay.
VACV mCherry inh – inhibitors of vaccinia virus infection (mCherry reporter signal). AID 720579. actives 0.63% (n = 310,000). Potency, µM (doses to about 36.5 µM), for inactives: top-dose activity change, negative = inhibition, actives largely listed as inhibitors. Vaccinia virus mCherry reporter infection, fluorescence; about a quarter of the inactives have no number; active = well fitted inhibition curve with a large enough effect; inconclusive = small, poorly fitted or top-dose-only effect; inactive = no such curve, though single readings can be large or run the other way; tested in A549 cells; note: nearly all actives have a fitted effect of over 35% in size; inactives centre near -10
Vaccinia Venus – vaccinia inhibition (Venus reporter); actives 0.46% (n = 330,000); Potency, µM (doses to about 36.5 µM), for inactives: at the highest dose activity change, negative = inhibition, hits mostly inhibitors; Vaccinia virus Venus reporter expression, fluorescence; active means well fitted inhibition curve with a large enough effect; inconclusive means small, poorly fitted or top-dose-only effect; inactive means no such curve, though single readings can be large or run the other way; tested in A549 cells; note: nearly all actives have a fitted effect of over 30% in size; inactives centre near -10
Active calls of the source: *; i = inactive; ? = inconclusive; . = not tested or not shown; & = joins results of further samples; [ ] = another dose, or the depositor's remark. % is set by controls: 0 for no effect and ±100 for the full control effect; potency is the fitted concentration of half-maximal effect. Not a hit list; any-hit rate near 0.87%.

Every second line gives: VACV mCherry inh | Vaccinia Venus
CN1CCCCC1C(=O)N1CCC(Oc2cccc(CN3CCN(c4ccccn4)CC3)c2)CC1 (configuration not stated)
  -10% | -3%
CC(C)NC(=O)CSc1nc(-c2ccccc2)cs1
  i | -4%
CC(Sc1nnc(COc2ccccc2)n1-c1ccccc1)C(=O)O (configuration not stated)
  -2% | -2%
O=C(CSc1nnc(-c2cccs2)n1CC1CCCO1)c1cc2ccccc2o1 (configuration not stated)
  -8% | 13%
O=C(CCCn1c(=O)c2cccn2c2cccnc21)NCc1ccc(F)cc1
  -5% | -3%
COc1ccc(CC2(CO)CCN(Cc3c(C)nn(C(C)C)c3C)CC2)cc1
  -11% | -14%
CCCNC(=O)Cn1nc(C(F)(F)F)c2c1CCC2
  i | -14%
CCOCC(=O)Nc1ccc2c(c1)N(S(=O)(=O)c1cccs1)CCC2
  -24% | -17%
CCC1COCCS(=O)(=O)N1Cc1ccccc1C (configuration not stated)
  -11% | 3%&-8%
CCN(Cc1ccccc1)C(=O)Cn1c(=O)n(-c2cccc(C)c2)c(=O)c2c1c1cc(OC)ccc1n2C
  -9% | -5%
CC(=O)Nc1ccc(C(=S)NCC2(N(C)C)CCCCC2)cc1
  -7% | -5%
Cc1ccccc1NC(=O)CCNC(=O)Cn1ccc2ccccc2c1=O
  -12% | -2%
CCOc1ccc2nc(NC(=O)Nc3cccs3)sc2c1
  ? | -26%
COc1ccc(OC)c(NC(=O)C2CCC(CNc3c(N4CCOCC4)c(=O)c3=O)CC2)c1 (configuration not stated)
  i | -1%
CC(C)(C)S(=O)(=O)/C(C#N)=N/Nc1ccc(C#N)cc1
  -19% | -22%
COCCNC(=O)c1cc(C(=O)CC(C)C)c[nH]1
  -24% | -12%
Cc1nn(-c2ccccc2)c(C)c1C(=O)OCC(O)=C(C#N)c1nc2ccccc2[nH]1
  3% | 18%
COc1ccc(NC(=O)C2CCCN(C(=O)Nc3ccc(OC)cc3)C2)cc1 (configuration not stated)
  -22% | 4%
COc1cccc(Cc2nc3ccccc3nc2SCC(=O)NCCc2ccccc2)c1
  -3% | 2%
Cc1ccc(S(=O)(=O)N(C)C[C@@H]2OCc3cnnn3CCCC(=O)N([C@@H](C)CO)C[C@@H]2C)cc1
  i | -16%

No new results follow: entries from further up.
Every second line gives: VACV mCherry inh | Vaccinia Venus
COc1ccc(OC)c(NC(=O)C2CCC(CNc3c(N4CCOCC4)c(=O)c3=O)CC2)c1 (configuration not stated)
  i | -1%
CC(C)(C)S(=O)(=O)/C(C#N)=N/Nc1ccc(C#N)cc1
  -19% | -22%
COCCNC(=O)c1cc(C(=O)CC(C)C)c[nH]1
  -24% | -12%
Cc1nn(-c2ccccc2)c(C)c1C(=O)OCC(O)=C(C#N)c1nc2ccccc2[nH]1
  3% | 18%
COc1ccc(NC(=O)C2CCCN(C(=O)Nc3ccc(OC)cc3)C2)cc1 (configuration not stated)
  -22% | 4%
COc1cccc(Cc2nc3ccccc3nc2SCC(=O)NCCc2ccccc2)c1
  -3% | 2%
Cc1ccc(S(=O)(=O)N(C)C[C@@H]2OCc3cnnn3CCCC(=O)N([C@@H](C)CO)C[C@@H]2C)cc1
  i | -16%

New compounds follow:
Every second line gives: VACV mCherry inh | Vaccinia Venus
CC[C@@]1(C(=O)OC)N[C@H](CN(C)C(=O)NC(C)C)[C@@H]2C(=O)N(Cc3ccccc3)C(=O)[C@@H]21
  -1% | -1%
CCOC(=O)C1(C)CCCN(C(=O)c2cccs2)C1 (configuration not stated)
  -7% | 5%
Cn1nc(-c2ccc(OCC(=O)NCC3CCCO3)cc2)c2ccccc2c1=O (configuration not stated)
  . | ?
NC(=O)C1(N2CCCCC2)CCN(C(=O)Nc2ccc(F)cc2F)CC1
  0% | -1%
Cc1ccc(S(=O)(=O)NCCC(c2ccccc2)c2ccco2)cc1 (configuration not stated)
  -6% | -17%
C=CCOc1cccc(C(=O)NC(c2ccccc2)C(C)C)c1 (configuration not stated)
  i | -9%
COc1cccc(NC(=O)C2CCN(S(=O)(=O)c3ccc(N4CCCC4=O)cc3)CC2)c1
  i | ?
COc1ccc(-c2oc3ccc(-c4ccc5c(c4)OCO5)cc3c2-c2ccc(OC)nc2)cc1
  -7% | -8%
Cc1ccc(Cn2nnc3c(=O)n(Cc4ccccc4C)cnc32)cc1
  10% | -10%
O=C(NCc1ccccn1)c1ccc(Cn2cc(Br)cn2)o1
  -8% | -5%
CCC1CCCCN1CCCNC(=O)c1ccc(N2CCCC2=O)cc1 (configuration not stated)
  i | -13%
COc1nc(N)nc(NC(=O)c2cccs2)c1N=O
  -4%[7.34 µM] | -3%[7.34 µM]
Cc1cc(-c2nn(C)c(=O)c3ccccc23)ccc1CNC(=O)NC1CCCCC1
  i | -16%
Cc1ccccc1-n1nc2c(c1NC(=O)c1c(-c3ccccc3Cl)noc1C)CSC2
  2% | 10%
CCN(CC)CCN1C(=O)C(O)=C(C(=O)c2cc3cccc(OC)c3o2)C1c1ccc(F)cc1 (configuration not stated)
  i | 1%
O=C(NCc1ccco1)C1CCN(C(=O)c2ccc([N+](=O)[O-])cc2)CC1
  -2% | -7%
CCCNC(=O)C1(C)CCN(Cc2csc3ccccc23)C1 (configuration not stated)
  25% | 8%
COC(=O)CSc1ccc(C#N)c(SCC(=O)OC)c1
  -12% | -4%
O=C(c1ccccc1)c1n[nH]c(-c2ccccc2)cc1=O
  -8% | 0%
CCOC(=O)c1ccccc1NC(=O)Cn1c(=O)n(Cc2ccccc2)c(=O)c2c(C)c(C)sc21
  -2%&-7% | 0%&-6%

More structures:
Every second line gives: VACV mCherry inh | Vaccinia Venus
COc1ccc(NC(=O)CSc2nnc(Cc3cccn3C)n2CCc2ccccc2)c(OC)c1
  -18% | -23%
CC(=O)N1CCC2(CC1)OC(=O)C(C)=C2C(=O)NCc1cccc(Cl)c1
  -5% | -8%
CC1CCCCN1CCCNC(=O)c1ccc2c(c1)sc1nc(-c3ccc(F)cc3)cn12 (configuration not stated)
  -19% | -28%
Cc1ccc(-n2nc(-c3ccco3)cc2C(=O)NCc2cccnc2)cc1
  -1% | -17%
Cc1noc(C)c1CC(=O)N1CCOc2c(cc(-c3nc4ccccc4s3)cc2OC2CCOC2)C1 (configuration not stated)
  -4% | -3%
Clc1ccc(CNc2ccccn2)cc1
  4% | 0%
CCC(C)(C)n1nnnc1C(c1ccc(OC)c(OC)c1)N1CCN(c2cccc(OC)c2)CC1 (configuration not stated)
  . | -13%
O=C(CSc1nnc(CNC(=O)c2c(F)cccc2F)o1)NCc1ccccc1
  -3% | -12%
CC1CN(CCNC(=O)C2CCCc3c2[nH]c2ccccc32)Cc2ccccc2O1 (configuration not stated)
  -15% | -11%
Cc1cc(C(C)(C)C)cc(C)c1Cn1c2[n+](c3ccc(C(F)(F)F)cc31)CCCCC2
  i | -6%
Cc1cc(C)cc(NC(=O)CSc2nnc(CNC(=O)c3ccco3)o2)c1
  i | 4%
COc1ccc(-n2c(=O)[nH]c3cc(C(=O)NCCc4ccc(OC)c(OC)c4)ccc3c2=O)c(OC)c1
  -12% | -6%
COc1cccc(-n2c(/C=C/c3cccc(C)c3)nc3ccccc3c2=O)c1
  -27% | -20%
COc1ccc(C(CNC(=O)c2ccc(S(=O)(=O)N(C)C)cc2)N2CCCC2)cc1 (configuration not stated)
  -10% | -16%
COc1ccc(-c2noc(CC(=O)N(C)c3ccccc3F)n2)cc1
  -9% | -10%
COCCn1c(SCC(=O)Nc2cccc(F)c2)nc2c([nH]c3ccccc32)c1=O
  -7% | -14%
Cc1cccc(-n2c(=O)c3c(c4cc(C)ccc4n3C)n(CC(=O)N3CCCC3)c2=O)c1
  -6% | -15%
Cc1ccc(OCC(=O)Nc2ccc(Cl)cc2C(=O)c2ccccc2)cc1
  -17%&-18% | -15%&-9%
O=C(NCc1ccccc1F)C1CCCN(S(=O)(=O)c2ccc(-n3cnnn3)cc2)C1 (configuration not stated)
  i | -17%
O=C1C2C3C=CC(C2C(=O)N1c1ccccc1O)C1C2C(=O)N(c4ccccc4O)C(=O)C2C31 (configuration not stated)
  i | 0%

Further entries
Every second line gives: VACV mCherry inh | Vaccinia Venus
COc1ccc(Cl)cc1NC(=O)CSc1ccc(-c2sc(C)nc2C)nn1
  -15% | -15%
CCOC(=O)CCCCCCCCC(=O)Nc1ccc(-n2[nH]c(=O)cc2C)cc1
  i | -11%
N/C(Cn1cncn1)=N\NC(=O)C(=O)Nc1ccccc1
  0% | 1%
CCc1ccc(CNC(=O)CCSCc2ccccc2F)cc1
  -6% | -3%
C=CCN(c1ccccc1OC)S(=O)(=O)c1cccc(C(=O)NCC(c2ccc(OC)cc2)N2CCCC2)c1 (configuration not stated)
  -4% | -19%
Cc1ccc(NC(=O)C(Cc2ccccc2)n2cccc2)cc1C (configuration not stated)
  -13% | -9%
CC1(C(=O)NS(=O)(=O)c2ccccc2Cl)CCN1C(=O)CCc1ccccc1 (configuration not stated)
  -1% | -7%
CCOC(=O)c1[nH]c(CSc2nnc(-c3ccncc3)n2CCOC)c(C(=O)OCC)c1C
  -15% | -6%
COc1cccc(N2CCN(C(=O)CCCCCn3c(=O)[nH]c4ccccc4c3=O)CC2)c1
  i | -18%
CCn1nnc2cc(C(=O)NCCc3ccccc3F)ccc21
  -12% | -4%
O=C(Nc1ccccc1OC(F)F)C1CC(=O)N(Cc2ccccc2)C1 (configuration not stated)
  i | -6%
Nc1cc2[nH]c(=O)c3ccccc3c2cc1[N+](=O)[O-]
  i | -4%
CCCCC(=O)N(CCC)CCC
  -10% | -3%
COc1ccc(N2CC(C(=O)N[C@@H](C)C(=O)NC(C)c3ccccc3)CC2=O)cc1 (some centres not stated)
  -9% | -5%
CN(C)c1ccc(/C=C2\CCCc3c2nc2ccccc2c3C(=O)O)cc1
  -2% | -4%
Cc1ccc(NC(=O)Cn2nnc(C(=O)NCc3ccc4c(c3)OCO4)c2N)cc1Cl
  i | -16%
COc1cc(OC)nc(NC(=S)NC(=O)c2ccccc2)n1
  -6% | -10%
Cn1c(=O)c(=O)n(C)c2cc(NC(=O)c3ccccc3Br)ccc21
  -14% | -9%
CCOC(=O)C1=CN(Cc2cccc(F)c2)S(=O)(=O)N(CC)C1c1ccc(C(F)(F)F)cc1 (configuration not stated)
  -5% | -17%
O=C1CSC(=S)N1N=Cc1ccc(Cl)s1
  5% | 29%

Continued.
Every second line gives: VACV mCherry inh | Vaccinia Venus
O=C(CN1C(=O)C2(SCC(=O)N2c2ccccc2)c2ccccc21)Nc1ccccc1C(F)(F)F (configuration not stated)
  -1% | 2%
Cc1ccc(S(=O)(=O)Nc2ccc(C(=O)NC3CC3)cc2)cc1
  -9% | 1%
Clc1ccc(CSc2nc3ccncc3[nH]2)cc1
  i | 3%
NC(=O)c1ccccc1NC(=S)NC(=O)c1ccc(Br)o1
  -9% | -8%
COC(=O)[C@]12CCCCC=C1N(Cc1cccc3ccccc13)C(=O)[C@H](CC(=O)NCc1ccccc1)C2
  -1% | 3%
O=S(=O)(NC1=NCCC1)c1cccc(NC(=S)Nc2ccc(OC(F)F)cc2)c1
  -17% | -8%
COCCN(CCOC)S(=O)(=O)c1ccc(C(=O)Nc2nc(-c3ccncc3)cs2)cc1
  -16% | ?
COC(=O)C1CCN(C(=O)CSc2nnc(-c3ccncc3)o2)CC1
  . | -29%
Cc1c(NC(=O)OCCSc2nc(N(C)C)nc(N(C)C)n2)sc(=S)n1C
  -19% | -19%
Cn1c(=O)c2[nH]c(CCCCCCCCc3nc4ccccc4[nH]3)nc2n(C)c1=O
  ? | -27%
N#Cc1nc(-c2ccc(OCc3ccccc3)cc2)oc1NCCCn1ccnc1
  ? | -6%
CCCC(C)NC(=O)CN1C(=O)c2cccc3cccc1c23 (configuration not stated)
  -13% | 4%
CCOc1cccc(OCCOCCN2CCCC2)c1
  . | -11%
CCOC(=O)c1c(NC(=O)c2ccoc2C)sc(C)c1C
  -14% | -8%
O=C(c1cccs1)N1CCC2(O)CCCCC2C1c1ccc(F)cc1 (configuration not stated)
  -19% | -8%
Cc1ccc(S(=O)(=O)N2CCC(c3nc(-c4cccs4)nc4ccccc34)CC2)cc1
  -11% | -15%
Cc1ccc(NC(=O)Nc2ccccc2C(N)=O)cc1
  i | -16%
OC(COc1ccc(Cl)c2ccccc12)CN1CCN(c2ccccn2)CC1 (configuration not stated)
  i | -10%
CCN(CC)c1ccc(NC(=O)c2cnc3ccccn3c2=O)c(C)c1
  -16% | -17%
O=C(CCS(=O)(=O)c1ccccc1)N(Cc1cccnc1)c1nc2ccc(F)cc2s1
  i | -9%

More entries:
Every second line gives: VACV mCherry inh | Vaccinia Venus
C/C(=N\NC(=O)C1=NNC(=O)C1C)c1cccs1 (configuration not stated)
  2% | -10%
COc1ccc(OC)c(CCNC(=O)CCC(=O)N2CCOc3ccc(C)cc32)c1
  15% | -5%
COc1ccccc1-c1sc2ccccc2c1-c1ccc(Br)nc1
  -15% | -4%
COc1cccc(NC(=O)CN2C(=O)C(c3ccc(C)cc3)=NC23CCCCCC3)c1
  -7% | -9%
COc1ccc(C(=O)NCCc2ccc(C(F)(F)F)cc2)cc1S(=O)(=O)N1CCOCC1
  -29% | -13%
O=[N+]([O-])c1ccc(C2CC(c3ccccc3)=Nc3ccccc3S2)cc1 (configuration not stated)
  -4% | -17%
COC(=O)C1=C(C)N(C)C(=O)NC1c1c(OC)ccc2ccccc12 (configuration not stated)
  i | -5%
O=C(O)c1ccc(O)c(N2C(=O)Nc3ccccc3N2O)c1
  -12% | 4%
CC12CC3(C)CC(C)(C1)CC(NC(=O)N1CCCC1)(C2)C3
  -13% | -13%
